Assay outcomes (PubChem)
Anthrax LF prot: blocks Bacillus anthracis lethal factor protease; multiplex microsphere protease cleavage assay, LF; AID 588501; inhibition, % at 10 µM; 360,000 compounds, 0.12% hits; in the data active = inhibition above about 30%; inconclusive = no clear call, values can overlap the other calls; note: plate controls were buffer without enzyme for full effect and enzyme alone for no effect
Rv3671c inh: inhibits the M. tuberculosis serine protease Rv3671c; inhibition, % at 5.96 µM; 320,000 compounds, 0.048% hits; AID 2606; in the data active = inhibition above about 38%;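 note: extracellular domain of Rv3671c used as enzyme; 0% = enzyme with DMSO and 100% = no enzyme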
Target sequence (P9WHR9 whole entry, looked up, the tested form may be a part): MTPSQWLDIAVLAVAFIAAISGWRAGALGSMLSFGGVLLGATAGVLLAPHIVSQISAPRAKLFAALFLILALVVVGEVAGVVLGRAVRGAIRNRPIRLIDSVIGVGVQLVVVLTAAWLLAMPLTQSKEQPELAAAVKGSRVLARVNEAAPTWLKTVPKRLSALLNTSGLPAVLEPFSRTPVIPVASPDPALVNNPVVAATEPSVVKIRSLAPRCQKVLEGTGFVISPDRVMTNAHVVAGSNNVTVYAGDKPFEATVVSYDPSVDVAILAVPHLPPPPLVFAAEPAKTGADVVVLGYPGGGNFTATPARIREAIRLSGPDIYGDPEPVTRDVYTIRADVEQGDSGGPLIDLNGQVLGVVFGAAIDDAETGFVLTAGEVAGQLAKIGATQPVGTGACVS
3CLpro inhibitor: SARS-CoV 3CLpro protease inhibition; recombinant SARS-CoV 3CLpro, quenched FRET peptide cleavage; inhibition, % at 6 µM; P0C6X7; 290,000 compounds, 0.14% hits; in the data active = inhibition above about 12%
BH1578 lux ind: induces V. cholerae light production without autoinducers | V. cholerae BH1578 lux reporter, luminescence, 6 h | activation, % at 18.7 µM | 350,000 compounds, 0.16% hits | AID 588436; in the data active = activation mostly above about 9.7%, no sharp cut-off; inconclusive = no clear call, values can overlap the other calls; inactive = mostly below about 3.7%; note: not every result past the cut was called active; inactives centre near 0; reference of the scale not given here
DUSP3 inh: inhibitors of human VHR1 phosphatase (DUSP3); recombinant VHR phosphatase, pNPP absorbance; 290,000 compounds, 0.52% hits; AID 1654; P51452; inhibition, % at 13.3 µM; in the data active = inhibition above about 50%; note: some compounds called inactive have numbers as strong as hits
Target sequence (P51452 whole entry, looked up): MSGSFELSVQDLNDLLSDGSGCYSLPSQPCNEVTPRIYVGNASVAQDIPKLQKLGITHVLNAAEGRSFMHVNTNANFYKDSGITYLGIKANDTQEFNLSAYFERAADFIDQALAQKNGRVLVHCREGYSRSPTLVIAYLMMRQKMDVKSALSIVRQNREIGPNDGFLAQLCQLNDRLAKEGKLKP
TcdB inh: TcdB glycohydrolase inhibition | AID 652162 | P18177 | 350,000 compounds, 0.24% hits | inhibition, % at 9.99 µM | TcdB glycohydrolase enzymatic assay, plate reader; in the data active = inhibition above about 10%
SSB-PriA inh: blocks PriA binding to SSB C-terminal tail. AlphaScreen SSBct-PriA binding, biotinylated peptide. inhibition, % at 33 µM. 430,000 compounds, 0.6% hits. AID 1272365; in the data active = inhibition mostly above about 37%, no sharp cut-off; inactive = mostly below about 20%;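 note: plate controls were negative control peptide for no effect and reference peptide for full effect; strong numbers were not always called active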
Yp Topo-I inh: blocks Yersinia pestis topoisomerase I activity. Y. pestis Topo-I cleavage product accumulation, plate reader. 360,000 compounds, 0.064% hits. activity, % at 10 µM; in the data active = activity above about 50%, passing the limit was not always enough; inconclusive = no clear call, values can overlap the other calls; note: inactives centre near 2
PfHsp40 rescue: restores yeast growth despite PfHsp40 toxicity; S. cerevisiae expressing PfHsp40, growth rescue, ATP luminescence; growth rescue, % at 12.5 µM; 340,000 compounds, 0.68% hits; AID 504582; in the data active = growth rescue above about 28%, passing the limit was not always enough; inconclusive = no clear call, values can overlap the other calls;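 note: yeast W303a lacking pdr1 and pdr3 grown in galactose medium; growth measured after three days at 30 °C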
Numbers without * were called inactive; i = inactive; u = inconclusive; x = not tested or not shown; & = joins results of further samples.

Every second line gives: Anthrax LF prot | Rv3671c inh | 3CLpro inhibitor | BH1578 lux ind | DUSP3 inh | TcdB inh | SSB-PriA inh | Yp Topo-I inh | PfHsp40 rescue
CC(CC1CC2=C(CC1(C)C)C(C)(C)CCC2)=NNC(N)=S (stereo not given)
→ x | x | x | x | x | x | 33.2 | x | x
CCCCn1c(N)c(N(CC)C(=O)c2ccc(-c3ccc(Cl)cc3)o2)c(=O)[nH]c1=O
→ -2.2 | 0.8 | x | i | x | -0.1 | -5.3 | 9.4 | 0.2
CCCCN1C(=O)N(c2nnc(C(C)(C)C)s2)C(O)C1c1ccc(C)cc1 (stereo not given)
→ -12.3 | 3.3 | 6.4 | i | 6.1 | 1.4 | 3.7 | 8.6 | 1.0
COc1ccc(Oc2nc3c(c(=O)n(C)c(=O)n3C)n2Cc2ccccc2)cc1
→ -0.9 | 8.5 | 2.0 | -1.0 | 4.2 | x | -4.3 | -10.8 | -0.6
CCOc1cc(C)c(Cl)cc1S(=O)(=O)N(C)C
→ -0.8 | -6.3 | 1.4 | -0.7 | -16.7 | x | 1.2 | 0.5 | -0.2
CCCN(CCC)Cc1c(C(=O)N/N=C/c2ccoc2)nnn1-c1nonc1N
→ 1.9 | -0.1 | -4.3 | -0.2 | 18.7 | -0.5 | x | -0.3 | -0.3
Cc1cccc2c1-c1sc(C(=O)NCCCN3CCc4ccccc4C3)cc1CO2
→ -1.0 | -10.6 | 1.6 | -0.4 | 24.6 | -0.4 | 5.2 | 7.9 | 0.5
CCN1CCC2(CC1)Oc1c(OC)cccc1C1CC(c3cccnc3)=NN12 (stereo not given)
→ u | 1.0 | -0.1 | -0.7 | 21.7 | -1.1 | -8.5 | 10.5 | x
Cc1ccc([N+](=O)[O-])cc1NC1CC(O)C(CO)O1 (stereo not given)
→ 1.4 | -4.5 | 0.4 | 0.0 | 7.6 | 1.5 | -1.4 | 0.4 | -1.6
CCC(NC(=O)C1C2C=CC(C2)C1C(=O)O)c1ccc(C)cc1 (stereo not given)
→ -14.0 | 3.6 | 5.4 | 1.2 | 16.5 | 0.1 | 5.4 | -5.6 | -1.4
CC(=O)c1ccc(NC(=O)C(C)OC(=O)C(C)Oc2cccc(C)c2)cc1 (stereo not given)
→ -1.6 | 7.3 | -2.0 | i | -3.9 | 0.6 | 7.1 | 0.1 | 0.3
CC(=O)OCP(C)(=O)COC(C)=O
→ 1.0 | 4.5 | -10.8 | -0.4 | -24.0 | x | -1.0 | -2.5 | -0.4
O=C(NN=C1CCCCCCCCCCC1)c1cccc(S(=O)(=O)N2CCOCC2)c1
→ -2.9 | -3.4 | 2.1 | -0.3 | -2.2 | x | -0.3 | -2.2 | -1.1
O=S(=O)(NC1CCCCC1NCc1ccco1)c1ccc(Cl)cc1 (stereo not given)
→ -1.1 | 2.2 | -1.1 | i | 1.5 | x | 3.0&11.7&1.0 | 2.2 | 0.4
Cc1ccc(-c2nc3c(cnn3-c3ccccc3)c(=O)o2)cc1
→ -6.4 | -0.2 | -5.2 | 4.8 | 24.0 | 0.5 | -8.4 | 2.8 | 0.5

Further records follow:
Every second line gives: Anthrax LF prot | Rv3671c inh | 3CLpro inhibitor | BH1578 lux ind | DUSP3 inh | TcdB inh | SSB-PriA inh | Yp Topo-I inh | PfHsp40 rescue
Cc1cc(C)nc(/N=C(\N)Nc2ccc(F)c([N+](=O)[O-])c2)n1
→ 0.7 | 7.5 | -0.9 | x | 35.3 | x | x | -1.2 | -1.1
C/C(C=NNC(=O)c1n[nH]c2c1CCC2)=C\c1ccccc1
→ x | x | x | x | x | x | -4.6 | x | x
Cc1ccc(S(=O)(=O)Nc2nc(C)cc(NCCN)n2)cc1
→ -2.2 | -0.8 | -2.6 | 17.1 | 17.5 | -1.4 | -6.3 | 10.9 | -0.1
CCOC(=O)c1cc(CC)sc1N=CC1C(=O)NC(=S)NC1=O
→ x | x | x | x | x | x | 7.7 | x | x
CCSc1nnc(NC(=O)CSc2nnc(Cc3cccn3C)n2-c2ccc(C)cc2)s1
→ -5.6 | -14.5 | 3.6 | 1.3 | -7.5 | 1.7 | 2.6 | 6.5 | -1.5
Cc1ccc(C)c(N2CCN(C(=O)CCCN3C(=S)NC(C)(C)CC3C)CC2)c1 (stereo not given)
→ 1.8 | -4.3 | 3.2 | -0.3 | -10.1 | x | 32.9 | 35.4 | 0.5
NC(=O)C1CCN(C(=O)c2ccccc2SCC(=O)NCC2CCCCC2)CC1
→ -4.5 | -2.0 | 5.9 | i | -18.6 | -7.0 | -12.1 | 8.1 | 0.0
COc1ccc(C(C)=NNC(=O)c2ccncc2)cc1
→ x | x | x | x | x | x | -8.8 | x | x
Cc1ccc(C)c(NC(=O)CN(C)C(=O)C2COc3ccccc3O2)c1 (stereo not given)
→ -2.6 | -11.0 | x | i | x | 0.7 | -1.5 | 0.5 | -1.0
CC(C)[C@@H]1COC(c2cccc(C3=N[C@H](C(C)C)CO3)c2)=N1
→ -4.8 | 3.1 | -2.6 | -0.9 | 5.0 | 0.1 | -11.0 | 23.5 | 0.2
CCCC(C)c1nnc(NC(=O)c2cc(C(=O)OC)cc([N+](=O)[O-])c2)s1 (stereo not given)
→ 0.5 | 6.8 | 1.6 | -0.2 | 3.8 | 0.3 | 10.1 | 3.8 | 0.5
Cc1c(-c2ccc(F)cc2)nc(N)c(C#N)c1-c1cccnc1
→ x | 3.2 | -5.0 | -0.6 | 13.3 | 1.0 | 2.5 | -1.9 | x
CSc1nc(N2CCOCC2)c2c3c(sc2n1)CCC3
→ -0.1 | -7.6 | 3.0 | i | 6.3 | x | -15.6 | 10.9 | 1.7
Brc1cccc(OCCCNC2CCCC2)c1
→ -0.5 | 1.1 | 1.5 | -1.2 | 47.8 | 0.8 | 6.2 | -17.3 | -0.8

Profiles, quoted from the list:
`CCCC(C)c1nnc(NC(=O)c2cc(C(=O)OC)cc([N+](=O)[O-])c2)s1` (stereo not given) is listed with Anthrax LF prot: 0.5; Rv3671c inh: 6.8; 3CLpro inhibitor: 1.6; BH1578 lux ind: -0.2; DUSP3 inh: 3.8; TcdB inh: 0.3; SSB-PriA inh: 10.1; Yp Topo-I inh: 3.8; PfHsp40 rescue: 0.5
`COc1ccc(C(C)=NNC(=O)c2ccncc2)cc1` is listed with Anthrax LF prot: x; Rv3671c inh: x; 3CLpro inhibitor: x; BH1578 lux ind: x; DUSP3 inh: x; TcdB inh: x; SSB-PriA inh: -8.8; Yp Topo-I inh: x; PfHsp40 rescue: x
`Cc1cc(C)nc(/N=C(\N)Nc2ccc(F)c([N+](=O)[O-])c2)n1` is listed with Anthrax LF prot: 0.7; Rv3671c inh: 7.5; 3CLpro inhibitor: -0.9; BH1578 lux ind: x; DUSP3 inh: 35.3; TcdB inh: x; SSB-PriA inh: x; Yp Topo-I inh: -1.2; PfHsp40 rescue: -1.1

Rewritten with bars between the fields: five of the compounds above.
molecule | Anthrax LF prot | Rv3671c inh | 3CLpro inhibitor | BH1578 lux ind | DUSP3 inh | TcdB inh | SSB-PriA inh | Yp Topo-I inh | PfHsp40 rescue
Cc1ccc(C)c(NC(=O)CN(C)C(=O)C2COc3ccccc3O2)c1 (stereo not given) | -2.6 | -11.0 | x | i | x | 0.7 | -1.5 | 0.5 | -1.0
CC(C)[C@@H]1COC(c2cccc(C3=N[C@H](C(C)C)CO3)c2)=N1 | -4.8 | 3.1 | -2.6 | -0.9 | 5.0 | 0.1 | -11.0 | 23.5 | 0.2
CCCC(C)c1nnc(NC(=O)c2cc(C(=O)OC)cc([N+](=O)[O-])c2)s1 (stereo not given) | 0.5 | 6.8 | 1.6 | -0.2 | 3.8 | 0.3 | 10.1 | 3.8 | 0.5
Cc1c(-c2ccc(F)cc2)nc(N)c(C#N)c1-c1cccnc1 | x | 3.2 | -5.0 | -0.6 | 13.3 | 1.0 | 2.5 | -1.9 | x
CSc1nc(N2CCOCC2)c2c3c(sc2n1)CCC3 | -0.1 | -7.6 | 3.0 | i | 6.3 | x | -15.6 | 10.9 | 1.7

These rows are one share of the data; rates above refer to the full screens.
